Compound activity from PubChem BioAssay.
RVFV N-RNA inh – inhibitors of Rift Valley Fever Virus nucleocapsid-RNA interaction; RVFV N-RNA binding, fluorescence polarization; active compounds read low; 20,000 compounds, 0.1% hits; % bound, % (test concentration not listed); P21700;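 active = between 0 and 58% in either replicate with normal brightness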;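 also: 100 nL library stock added to about 12 µL; 100% = protein and probe without compound and 0% = probe alone; numbers are from one replicate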
Target sequence (P21700 whole entry, looked up): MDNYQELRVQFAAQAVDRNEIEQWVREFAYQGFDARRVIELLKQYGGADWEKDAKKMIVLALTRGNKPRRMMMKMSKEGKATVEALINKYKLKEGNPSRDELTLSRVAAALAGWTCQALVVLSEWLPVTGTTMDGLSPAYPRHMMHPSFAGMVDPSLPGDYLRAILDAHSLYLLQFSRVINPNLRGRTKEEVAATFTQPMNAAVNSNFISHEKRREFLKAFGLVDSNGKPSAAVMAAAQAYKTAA
* marks the source's active call; other numbers are inactive results; & = joins results of further samples.

no.	SMILES	RVFV N-RNA inh
1	CC1(C)CC2CC(C)(CN2Cc2c(O)ccc3cc(-c4ccccn4)c(=O)oc23)C1 (centres undefined)	101
2	COc1ccccc1OC(=O)CN1C(=O)c2ccccc2C1=O	95
3	C=CCOc1ccccc1CNc1ccc(C)cc1	87
4	CCC(C)(C)C1CCC(=O)C(C2(O)C(=O)N(C)c3ccccc32)C1 (centres undefined)	95
5	CCNC(=S)/N=C(\N)Nc1nc(C)c2cc(C)ccc2n1	78
6	CCc1ccc(NC(=O)CSc2nc3c(oc4ccccc43)c(=O)n2CC)cc1	99
7	O=C1N(Cc2ccccc2)CCCC12CCCN(Cc1ccccc1)C2=O	98
8	O=C1CCN=C(SCC(=O)Nc2ccccc2)N1	93
9	CC(C)C(=O)Nc1ncc(Cc2ccccc2)s1	95
10	CCN(CC)CCN1C(=O)C(=O)/C(=C(/O)c2cnn(-c3ccccc3)c2C)C1c1cccs1 (centres undefined)	108
11	NS(=O)(=O)c1ccc(NC(=O)C(F)(F)F)cc1	91
12	O=c1ccc(-c2ccccc2)nn1CCN1CCCCC1	98
13	COc1ccc(N=C2SCC(=O)N2c2ccc(OC)cc2)cc1	98
14	Cc1ccc2nc(NNC(=O)c3ccccc3)sc2c1	101
15	CN(Cc1ccccc1)S(=O)(=O)c1cccc2cccnc12	95
16	COc1ccc(S(=O)(=O)NCC(c2ccc3c(c2)OCO3)N2CCN(C)CC2)cc1 (centres undefined)	91
17	COC(=O)c1sc2nc[nH]c(=O)c2c1C	96
18	CC(Sc1ccccc1)C(=O)Nc1ccccc1Cl (centres undefined)	93
19	O=C(O)CCC(C(=O)O)N1C(=O)/C(=C\c2ccco2)SC1=S (centres undefined)	95
20	O=C1CC(c2nc3ccccc3[nH]2)CN1c1cccc2ccccc12 (centres undefined)	84
21	CNCCCC1c2ccccc2C=Cc2ccccc21	104
22	O=C(/C=C/Nc1ccccc1C(F)(F)F)c1ccco1	98
23	CC1=CCCC(C)(C)C1/C=C/C(C)=N/O (centres undefined)	98
24	O=C(NCC1OCCc2ccccc21)c1ccccc1 (centres undefined)	94
25	Cc1cc2ncn(C(=O)N(C)C)c2cc1C	100
26	CCOC(=O)C1CCN(Cc2ccccc2)CC1=O (centres undefined)	96
27	CCCOP(=O)(c1ccccc1)c1ccccc1	91
28	CC1CC(C)CN(S(=O)(=O)c2ccc(C(=O)N3CCOCC3)cc2)C1 (centres undefined)	95
29	Cc1ccccc1-n1ncc2c(=O)n(CCN3CCCCC3)cnc21	98
30	O=S(=O)(Cc1ccc(Cl)cc1)N1CCc2ccccc21	100
31	Cc1ccc(SC(C)C(=O)Nc2ccc(CC#N)cc2)cc1 (centres undefined)	94
32	O=C(CSc1nc2c(c(C(F)(F)F)n1)CCCC2)Nc1ccccc1	88
33	Cc1cc(C)nc(SCC(=O)NC2=NN=C(c3ccccc3)CS2)n1	103
34	CCCC(CCC)C(=O)OC1CC2CCC(C1)[N+]2(C)C (centres undefined)	109
35	Cn1c2ccccc2c2c3c(c4c5ccccc5n(CCC#N)c4c21)CNC3=O	101
36	Clc1ccc(-c2nnc3n2-c2ccccc2SC3)cc1	99
37	CCNc1nc(NCC)n2c(SCC(=O)NC3=C(C(=O)OCC)C4CCCC4S3)nnc2n1 (centres undefined)	91
38	CCC1(c2ccccc2)C(=O)N(COC)C(=O)N(COC)C1=O	94
39	CCS(=O)(=O)c1ncc(CO)n1CCc1ccccc1	96
40	CCN(C(=O)CSc1nc(C)cc(COC)c1C#N)c1ccccc1	95
41	CC(C(=O)Nc1nc2ccc(S(=O)(=O)N3CCOCC3)cc2s1)N1C(=O)c2ccccc2C1=O (centres undefined)	96
42	O=S(=O)(Nc1ccc(N2CCN(c3ncccc3C(F)(F)F)CC2)nc1)c1ccc(Cl)cc1	97
43	COc1ccccc1-n1ccnc(SCC(=O)NC2CCCCC2)c1=O	100
44	CC(C)OC(NC(=O)c1ccccc1)(C(F)(F)F)C(F)(F)F	99
45	O=C1NNC(=S)Nc2ccccc21	98
46	COc1ccc(-c2nnc(SCc3c(Cl)cccc3Cl)o2)cc1	85
47	CO[C@H]1O[C@H](COC(C)=O)[C@@H](OC(C)=O)[C@H](OC(C)=O)[C@H]1OC(C)=O	96
48	COc1ccc(CC(=O)NC(C)c2nnc(SCC(=O)Nc3cc(C)ccc3OC)n2C)cc1 (centres undefined)	99
49	Cc1cc(=O)oc2c1C(=O)CC(C)(C)C2	96
50	CN1CCN(c2ccc(NC(=O)Nc3ccc(C(F)(F)F)cc3)cc2)CC1	109

(cont.)
no.	SMILES	RVFV N-RNA inh
51	CC(O)CNc1ccc(C(F)(F)F)cn1 (centres undefined)	95
52	CC1(C(=O)O)CCC(c2nc(N)n[nH]2)C1(C)C (centres undefined)	95
53	CCC(COC(=O)c1cc(OC)c(OC)c(OC)c1)(c1ccccc1)N(C)C (centres undefined)	98
54	O=C(/C=C1\SC(=O)N(CN2CCCCC2)C1=O)Nc1ccccc1	103
55	CC1=NN(c2ccccc2)C(=O)/C1=C\N1CCC(C)CC1	100
56	COc1ccc(NCc2ccc(OCC(N)=O)c(Cl)c2)cc1	89
57	Cc1cc(CN2CCOCC2)c(O)c(C2(C)CCCCC2)c1	97
58	CC(C)C[C@H]1C(=O)N2CCC[C@H]2[C@]2(O)O[C@](NC(=O)[C@@H]3C=C4c5cccc6[nH]c(Br)c(c56)C[C@H]4N(C)C3)(C(C)C)C(=O)N12	90
59	O=C(CSc1nnc2[nH]c(=O)ccn12)N1CCc2ccccc21	95
60	CC(C)Cn1c(NC(=O)Nc2ccccc2F)c2ccccc2nc1=O	95
61	COc1cc(C=Nc2cc(Cl)ccc2O)ccc1O	85
62	CN1c2ccsc2C(=O)/C(=C\N=S(C)(=O)c2ccc(Cl)cc2)S1(=O)=O (centres undefined)	94
63	CN(C)CCCn1c2c(c(SCC(=O)Nc3ccccc3)nc1=O)CCC2	97
64	Cc1cc(C)cc(OCC(=O)Nc2nccs2)c1	88
65	O=Cc1c2ccc[nH]c-2c2ccccc12	97
66	CCOC(=O)c1nn(-c2ccccc2)c(=O)cc1OCC	93
67	CC(C)(NS(=O)(=O)c1ccc(Oc2ccc(F)cc2)cc1)C(=O)NO	96
68	NS(=O)(=O)c1ccc2c(c1)Cc1ccccc1-2	96
69	FC(F)(F)c1ccc(NC2CCCCC2)nc1	85
70	CN(C)c1ccc(/C=[N+](\[O-])C2(C)CCCCC2=O)cc1 (centres undefined)	83
71	Cc1cc(C(C#N)c2ccc(Cl)cc2)c(Cl)cc1NC(=O)c1cc(I)cc(I)c1O (centres undefined)	108
72	CCOc1ccc(S(=O)(=O)Nc2ccccc2C(F)(F)F)cc1	94
73	O=C1c2ccccc2NC2(C(=O)Nc3ccccc32)N1CCOc1ccccc1 (centres undefined)	88
74	COc1ccc(CNC(=O)C2CCNCC2)cc1	96
75	CC[n+]1c(/C=C/N(C)c2ccccc2)n(-c2ccccc2)c2ccc(-c3nc4ccccc4s3)cc21	119
76	Cc1nnc2sc(SCC(=O)Nc3nccs3)nn2c1=O	102
77	O=C(CC(c1ccccc1)c1ccccc1)NCCO	91
78	CC(C)=N/N=C1/NC(=O)C(CC(=O)Nc2cccc3ccccc23)S1 (centres undefined)	96
79	CC(C)OC(=O)c1oc2c(O)c(O)ccc2c(=O)c1-c1cnn(-c2ccccc2)c1	96
80	COc1cccc(C(C#N)N2CCCCC2)c1O (centres undefined)	105
81	N/C(Cn1ccc(C(F)(F)F)n1)=N\OC(=O)Nc1ccc(Cl)cc1	95
82	CC(=O)NC1C(OCc2ccccc2)OC(CO)C(O)C1OC(C)=O (centres undefined)	96
83	O=C(CCCc1ccccc1)Nc1nnc(C(F)(F)F)s1	89
84	CCOC(=O)c1c(CS(=O)(=O)c2cccc(C(F)(F)F)c2)oc2c(F)c(F)c(F)c(F)c12	92
85	COC(=O)c1ccc(CSc2nnc(-c3ccc(OC)cc3)o2)cc1	94
86	N#CCCc1ccc2c(c1)-c1[nH]c3ccc([N+](=O)[O-])cc3c1CC(=O)N2	111
87	CCN1C(=O)C(O)(CC(=O)C(C)(C)C)c2cc(Br)ccc21 (centres undefined)	106
88	O=C(NCCCO)NC1CCCCC1	99
89	COC(=O)c1sc(Sc2cccs2)c2c1CC(C)(C)CC2=O	89
90	CN1Cc2c(N)cccc2C(c2ccccc2)C1 (centres undefined)	94
91	CCOC(=O)C1=C(C)N=C2SCCC(=O)N2C1/C=C/c1ccccc1 (centres undefined)	97
92	Fc1cccc(CN2CCN(C(=S)NCc3ccco3)CC2)c1	91
93	CN(CC(=O)O)C(=O)Nc1ccc(Cl)cc1Cl	96
94	O=C1CS/C(=N/S(=O)(=O)c2ccccc2)N1C1CCCCC1	89
95	NS(=O)(=O)c1ccc(CCNC(=O)NC2CC(=O)N(c3ccccc3)C2)cc1 (centres undefined)	92
96	CN(C)c1ccc(CN(C)C2CCCCC2)cc1	96
97	COc1ccc(CNc2ccccc2C(=O)O)c(OC)c1OC	98
98	CCCCCSc1nnc(-c2ccc(Cl)cc2Cl)o1	92
99	O=c1[nH]c(=S)[nH]c2ccccc12	109
100	CC(C)NC(=O)NNc1cc(N(C)C)c(C#N)c(N(C)C)n1	90

Overlap with the part before: 12 entries, followed by the next part.
nr	molecule	RVFV N-RNA inh
89	COC(=O)c1sc(Sc2cccs2)c2c1CC(C)(C)CC2=O	89
90	CN1Cc2c(N)cccc2C(c2ccccc2)C1 (centres undefined)	94
91	CCOC(=O)C1=C(C)N=C2SCCC(=O)N2C1/C=C/c1ccccc1 (centres undefined)	97
92	Fc1cccc(CN2CCN(C(=S)NCc3ccco3)CC2)c1	91
93	CN(CC(=O)O)C(=O)Nc1ccc(Cl)cc1Cl	96
94	O=C1CS/C(=N/S(=O)(=O)c2ccccc2)N1C1CCCCC1	89
95	NS(=O)(=O)c1ccc(CCNC(=O)NC2CC(=O)N(c3ccccc3)C2)cc1 (centres undefined)	92
96	CN(C)c1ccc(CN(C)C2CCCCC2)cc1	96
97	COc1ccc(CNc2ccccc2C(=O)O)c(OC)c1OC	98
98	CCCCCSc1nnc(-c2ccc(Cl)cc2Cl)o1	92
99	O=c1[nH]c(=S)[nH]c2ccccc12	109
100	CC(C)NC(=O)NNc1cc(N(C)C)c(C#N)c(N(C)C)n1	90
101	N#Cc1ccc(C(=O)OCc2ccc(-c3cccc(Cl)c3Cl)o2)c(F)c1	92
102	CCC1SC(CC)C(=O)N(CC(=O)Nc2ccc(F)cc2F)C1=O (centres undefined)	97
103	CCCc1c(C(=O)Nc2cc(-c3ccccc3)nn2C)cnn1-c1ccccc1	101
104	CCc1ccccc1NC(=O)CC(O)(C(=O)OC)C(F)(F)F (centres undefined)	90
105	O=C1S/C(=C\C=C\c2ccco2)C(=O)N1CCCc1ccccc1	107
106	COCC(=O)N(C)C1(c2nnnn2CCOC(=O)Nc2ccc(Cl)cc2)CCCC1	92
107	CCOC(=O)NC(=O)c1cn(Nc2ccccc2)c(=O)[nH]c1=O	102
108	CC(SCc1ccccc1)C(=O)N1CC(=O)Nc2ccccc21 (centres undefined)	101
109	COC(=O)C1C(=O)C(C(=O)/C=C/c2ccco2)C(=O)CC1(C)C (centres undefined)	93
110	COc1ccc(-c2sc(C(=O)O)c(C)c2C#N)cc1	91
111	COCc1cc(C)nc(SCC(=O)NC23CC4CC(CC(C4)C2)C3)c1C#N	100
112	O/N=C(\c1ccccc1)c1cc2ccccc2o1	93
113	COc1ccc(-c2cc(C3CC3)nc(SCC(=O)O)c2C#N)cc1	94
114	O=C(CSc1nc(=O)n(CCN2CCOCC2)c2c1CCCC2)Nc1cccc(C(F)(F)F)c1	99
115	FC(F)(F)c1nc2ccccc2nc1Cl	84
116	O=c1[nH]cccc1Br	100
117	Cc1ccc(C(=O)N(C(C)C)C(C)C)c(Cl)c1	92
118	COc1ccc(Cl)cc1S(=O)(=O)N1CCC(C(=O)NCc2ccco2)CC1	94
119	COc1ccc(-c2nc3c(c(=O)c4ccccc4n3C)c(=O)n2Cc2ccco2)cc1	96
120	O=C(Nc1nccs1)c1cccc(N2C(=O)C3C4C=CC(C4)C3C2=O)c1 (centres undefined)	111
121	NC1(C(=O)O)CCCCC1	97
122	Cc1cc(-c2onc(C)c2C(=O)Sc2ccccc2)no1	92
123	Nc1ccc(-c2ccccc2C(=O)O)cc1	95
124	Cc1cc(NC(=O)Nc2ccc(Cl)cc2)n(-c2ccccc2)n1	92

Reformatted as labelled records: entries from further up.
103) CCCc1c(C(=O)Nc2cc(-c3ccccc3)nn2C)cnn1-c1ccccc1
  RVFV N-RNA inh = 101
104) CCc1ccccc1NC(=O)CC(O)(C(=O)OC)C(F)(F)F (centres undefined)
  RVFV N-RNA inh = 90
105) O=C1S/C(=C\C=C\c2ccco2)C(=O)N1CCCc1ccccc1
  RVFV N-RNA inh = 107
106) COCC(=O)N(C)C1(c2nnnn2CCOC(=O)Nc2ccc(Cl)cc2)CCCC1
  RVFV N-RNA inh = 92

(further entries)
nr	molecule	RVFV N-RNA inh
125	CN(C)c1ccc(N/C=C/C(=O)c2ccco2)cc1	102
126	CCCN(CCC)C1Cc2cc(OC)c(OC)cc2C1	97
127	O=C(C(O)c1ccccc1)N1N=C2CCCCC2C1(O)C(F)(F)F (centres undefined)	97
128	Cc1ccc(C(=O)c2ccc(N3CCOCC3)c(F)c2)cc1	94
129	O=S(=O)(c1cccc(F)c1)N1CCN(c2nc3ccc(Cl)cc3s2)CC1	101
130	S=C1N(c2ccccc2)C(c2ccccc2)N2CCCN12 (centres undefined)	90
131	CC(C)C(=O)NCCc1nc2ccccc2n1C	102
132	CCN1/C(=C/C(C)=O)Sc2ccc(OC)cc21	107&93
133	Cc1nc2ccc(NC(=O)C(C)(C)C)cc2s1	112
134	N#C/C(=C\Nc1ccc(F)c(Cl)c1)C(=O)C1CC1	97
135	Cc1nc(N2CCOCC2)[nH]c(=O)c1Cc1c(F)cccc1Cl	90
136	CCOC(=O)c1ccc(NC(=O)C(C)Sc2nc(O)c(NC(C)=O)c(=O)[nH]2)cc1 (centres undefined)	85
137	O=C(NC(c1ccccc1)c1ccccc1)N1CCCCC1	99
138	NC1CCN(O)C1=O (centres undefined)	93
139	Cc1cc(Cl)c(S(=O)(=O)NCc2ccco2)cc1OCC(=O)NC1CCCCC1	94
140	COCCCNC1CCC(C)C1 (centres undefined)	94
141	COc1ccc(C(=O)NCCCCN2CCN(c3ncccc3C(F)(F)F)CC2)cc1	101
142	N#Cc1cnn(-c2ccc(F)c(Cl)c2)c1N	100
143	Cc1c(C(=O)NCc2ccco2)oc2c1C(O)CC(C)(C)C2 (centres undefined)	93
144	CC(O)/C=C/c1ccc2ccccc2n1 (centres undefined)	95

Not all compounds are listed; rates above refer to the full screens.
